Source: PubChem BioAssay
Methyltransferases: Primary Screen for Target Class Profiling of Small Molecule Inhibitors of Methyltransferases; purified enzyme, MTase-Glo SAH luminescence; hits give low values; 25,000 compounds, 3.9% hits; calls only at 40 µM; active = -50% or lower on at least one of six enzymes; inconclusive = the cases between; inactive = as a rule above -30% on all six;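 also: enzymes were COMT GAMT GNMT HNMT NNMT and PNMT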
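Each enzyme was assayed with SAM and its substrate. SAH formation detected by MTase-Glo luminescence; single-point 40 uM screen[…].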
Calls only; i = inactive; ? = inconclusive; + = active, no number. % is scaled to controls: 0 for no effect and ±100 for the full control effect.

The first six compounds (preview)
SMILES	Methyltransferases
COc1cccc(CN2C(=O)c3cc4occc4n3CC2(C)C(=O)NC2CCCCC2)c1 (stereo unspecified)	i
Cc1cc(CN2CCc3nn(C)c(=O)n3CC2)n(C)n1	i
COc1ncccc1-c1cc(-c2cn[nH]c2)c2cncn2c1	i
Cc1cc(C)cc(NC(=O)CSc2nnc3n(CCC(C)C)c(=O)c4ccccc4n23)c1	i
Cc1cc(NS(=O)(=O)c2ccc3[nH]c4c(c3c2)CCCC4)ccc1Br	i
OC[C@@]1(O)CO[C@@H](OC[C@H]2O[C@@H](OCc3ccccc3)[C@H](O)[C@@H](O)[C@@H]2O)[C@@H]1O	i

All compounds of this part, previewed entries included:
SMILES	Methyltransferases
COc1cccc(CN2C(=O)c3cc4occc4n3CC2(C)C(=O)NC2CCCCC2)c1 (stereo unspecified)	i
Cc1cc(CN2CCc3nn(C)c(=O)n3CC2)n(C)n1	i
COc1ncccc1-c1cc(-c2cn[nH]c2)c2cncn2c1	i
Cc1cc(C)cc(NC(=O)CSc2nnc3n(CCC(C)C)c(=O)c4ccccc4n23)c1	i
Cc1cc(NS(=O)(=O)c2ccc3[nH]c4c(c3c2)CCCC4)ccc1Br	i
OC[C@@]1(O)CO[C@@H](OC[C@H]2O[C@@H](OCc3ccccc3)[C@H](O)[C@@H](O)[C@@H]2O)[C@@H]1O	i
CC(=O)N(O)CCCCCN1C(=O)CCC1=O	i
CN(C)C(=O)C1=NOC2CN(C(=O)C3CC3)CC12 (stereo unspecified)	i
C=Cc1ccc(CSc2nnc3n(CCC)c(=O)c4cc(Cl)ccc4n23)cc1	i
CCCn1c(=O)c2ccc(C(=O)NC(C)CC)cc2n2c(SCC(=O)Nc3cc(C)cc(C)c3)nnc12 (stereo unspecified)	i
Cc1ccccc1N1C(=O)c2cc3occc3n2CC1(C)C(=O)NC1CCCCCCC1 (stereo unspecified)	i
COc1ccccc1CNC(=O)C1(C)Cn2nc(-c3ccccc3)cc2C(=O)N1Cc1cccc(OC)c1OC (stereo unspecified)	i
COCCNC(=O)C1CCC(=O)N1C1CCNCC1 (stereo unspecified)	i
COc1ccc(CN2CCN(C(=O)[C@H]3CCC[C@@H](O)C3)CC2=O)cc1	i
CCC(C(=O)NCCC(C)C)n1ccc2cc(S(=O)(=O)N3CCCCC3)ccc21 (stereo unspecified)	i
CCCn1c(=O)c2ccc(C(=O)NC(C)C)cc2n2c(=O)n(Cc3cccc(F)c3)nc12	i
COc1ccc(-c2ccc3ncc(Nc4ccncc4)n3n2)cn1	i
COCCOc1ccc2c(n1)CCN(C(=O)c1ccc(OC)c(OC)c1)C2	i
C=Cc1ccc(Cn2nc3n(CCC(C)C)c(=O)c4ccc(C(=O)NC5CCCC5)cc4n3c2=O)cc1	i
Oc1ccccc1-c1cc(-c2ccccc2F)[nH]n1	i
COc1ccc2c(=O)n(CC(=O)N(C)Cc3cc(C)no3)ccc2c1OC	i
CCc1nc(C)c(C(=O)N2CC[C@@](O)(COC)C(C)(C)C2)s1	i
O=S(=O)(NC[C@H]1O[C@@H](CO)[C@@H](O)[C@H]1N1CCN(c2ccc(F)cc2)CC1)c1ccc(F)cc1	i
C=C1C(=O)OC2/C=C(\CO)CC/C=C(\C=O)CC(OC(=O)CC(C)C)C12 (stereo unspecified)	+
O=C(c1ccsc1)N1CCC2(CC1)CN(C1CCC1)CC2CO (stereo unspecified)	i
CCn1cc(C(=O)N2C[C@@H](COC)[C@H](C(=O)NC)C2)cn1	i
Cc1nc2scc(CC(=O)N3CCOCC3)n2c(=O)c1-c1cc(C)n(-c2ccc(F)cc2)n1	i
Cc1ccc(-c2cn3c4c(sc3n2)CCCC4)cc1	?
CCc1cccc(N2C(=O)c3ccc(-c4ccco4)n3CC2(C)C(=O)NCc2ccc(Cl)cc2)c1 (stereo unspecified)	i
O=S(=O)(c1ccccc1)N1CCCC(CN2CCCC2)CC1 (stereo unspecified)	?
Cc1ccc(CNC(=O)C2(C)Cn3cnc(C(=O)NCc4ccccc4F)c3C(=O)N2C2CC2)cc1 (stereo unspecified)	i
CCOC(=O)CC1(NC(=O)N2CCn3cccc3C2Cc2ccccc2)CCCCC1 (stereo unspecified)	i
O=C(c1ccc(OCCCc2cnc[nH]2)cc1)C1CC1	i
CC(C)NC(=O)N1CCC(Oc2ccccc2)C1 (stereo unspecified)	i
CCCSCCCNC(=O)c1cc2n(n1)CC(C)(C(=O)NCc1ccc(F)cc1)N(C)C2=O (stereo unspecified)	i
Cc1cc(C)cc(NC(=O)CSc2nnc3n(CC(C)C)c(=O)c4ccc(C(=O)NC(C)C)cc4n23)c1	i
CC(C)c1cc2n(n1)CC(C)(C(=O)NC1CCCCC1)N(Cc1ccc(Cl)cc1)C2=O (stereo unspecified)	i
Cc1ccc(NS(=O)(=O)c2cc3c(cc2Cl)CCC(=O)N3)cc1Cl	?
O=C(c1cncc(Br)c1)N1CCC(N2CCCC2)CC1	?
COc1ccc(-c2n[nH]n3c2nc(=O)c2ccc(C(=O)NC(C)c4ccccc4)cc23)cc1 (stereo unspecified)	i
COc1cc(C)c(C(=O)NC2C(C)OC(OC3CCC(C)C4C3C=C(C)C3/C(C)=C\CC/C(C)=C/C5(C)C=C(C(=O)O)C(C)CC56OC(=O)/C(=C(\O)C34C)C6=O)C(O)C2(C)O)c(O)c1 (stereo unspecified)	i
CCOC(=O)c1cc2n(n1)CC(C)(C(=O)NCCC(C)C)N(c1ccc(OCC)cc1)C2=O (stereo unspecified)	i
O=C(O)[C@H](Cc1ccc(Nc2nccc3ccncc23)cc1)NC1=C(Br)C(=O)C12CCCCC2	?
Cc1ccc(NC(=O)CSc2nnc3n(CCC(C)C)c(=O)c4ccccc4n23)c(C)c1	i
Cc1ccc(C)c(C(=O)CSc2nnc3n(C)c(=O)c4ccc(C(=O)NC5CCCC5)cc4n23)c1	i
CC(C)CNC(=O)c1ccc2c(=O)n(Cc3ccccc3)c3n[nH]c(=O)n3c2c1	i
CN(C)[C@H]1CCCCN(C(=O)c2cn(CCN3CCNCC3)nn2)C1	i
Cc1cc(C(=O)N[C@@H]2CCC[C@@H](C(=O)NC3CC3)CC(=O)N(C)C2)nn1C	i
Cc1cc(C)cc(NS(=O)(=O)c2cc3[nH]c(=O)[nH]c3cc2C)c1	i
CC1(C(=O)NC2CCCCC2)Cn2c(cc3sccc32)C(=O)N1Cc1ccc(F)cc1 (stereo unspecified)	i
CC(C)Cn1c(=O)c2ccccc2n2c(SCC(=O)Nc3cccc(Cl)c3)nnc12	i
CC(C(=O)NCc1ccc(Cl)cc1)n1ccc2cc(S(=O)(=O)N3CCCCC3)ccc21 (stereo unspecified)	i
Cc1ccc(CNC(=O)Cn2nc3n(C(C)C)c(=O)c4ccc(C(=O)NC5CCCC5)cc4n3c2=O)cc1	i
CCOC(=O)N1CCC(=C2c3ccc(Cl)cc3CCc3cccnc32)CC1	i
Cc1nnc([C@@H]2CC(F)(F)CN2C(=O)c2nccc3ccccc23)o1	i
COc1ccc(-c2cc3n(n2)CC(C)(C(=O)NCc2ccccc2OC)N(CCC2=CCCCC2)C3=O)cc1 (stereo unspecified)	i
O=C(NCCn1ccnc1-c1cc2n(n1)CCCNC2)c1ccncc1	i
CCCCn1c(=O)c2sccc2n2c(CCC(=O)NCc3ccncc3)nnc12	i
CC1=CC(=O)CC(C)(C)C1CCC(C)O[C@@H]1O[C@H](CO)[C@@H](O)[C@H](O)[C@H]1O (stereo partly specified)	?
CCCSCCCN1C(=O)c2cc3sc(CC)cc3n2CC1(C)C(=O)NC1CCCCC1 (stereo unspecified)	i

Other entries:
SMILES	Methyltransferases
CCCn1c(=O)c2ccc(C(=O)NC(C)C)cc2n2c(SCC(=O)Nc3ccc(C)c(C)c3)nnc12	i
CCC(C)NC(=O)c1ccc2c(=O)n(CC(C)C)c3nn(CC(=O)Nc4ccccc4)c(=O)n3c2c1 (stereo unspecified)	i
O=C(c1cc(F)ccc1Cl)N1CCCC1c1nncn1Cc1ccncc1 (stereo unspecified)	i
COc1ccc(-c2cc3n(n2)CC(C)(C(=O)NCc2ccccc2OC)N(Cc2ccc(Cl)cc2)C3=O)cc1 (stereo unspecified)	i
CCCn1c(=O)c2ccc(C(=O)NC(C)C)cc2n2c(=O)n(CC(=O)NC3CCCCC3)nc12	i
C[C@@H]1CC2OC(=O)C3=C2C(CCC3O)[C@@]12C[C@@H](c1ccoc1)OC2=O (stereo partly specified)	i
O=C(Cn1ccc2cc(S(=O)(=O)N3CCCC3)ccc21)NCc1cccc(Br)c1	i
CCOC(=O)c1cccc(NS(=O)(=O)c2ccc3[nH]c(=O)[nH]c3c2)c1	i
CCCCNc1nc2c(-c3cccc(C)c3)nnn2c2ccccc12	i
Cn1cnc2ccc(-c3ccncc3)nc2c1=O	i
NC(=O)[C@H]1C[C@@H](O)[C@H](O)[C@H]2[C@@H]1SC(=Nc1ccc(Cl)cc1)N2Cc1ccc(F)cc1	i
Cc1ccc(-c2ccccc2CN2CCN(C(=O)Nc3ccccc3)CC2)cc1Cl	i
N#Cc1ccc(-c2ccc(S(=O)(=O)Nc3cccc(N)n3)cc2)cc1	i
COCCOC1CCOC2(CCN(C(=O)CCCc3ccccc3)CC2)C1 (stereo unspecified)	i
COc1ccc(CCN2C(=O)c3cc4ccccc4n3CC2(C)C(=O)NCc2ccccc2)c(OC)c1 (stereo unspecified)	i
C[C@@H]1O[C@@H](O[C@@H]2[C@@H](O)[C@H](O[C@@H]3[C@@H](O)[C@@H](O)[C@H](O[C@H]4[C@H](OC(=O)[C@]56CCC(C)(C)C[C@H]5C5=CCC7[C@@]8(C)C[C@H](O)[C@H](O[C@@H]9O[C@H](C(=O)O)[C@@H](O)[C@H](O)[C@H]9O)[C@@](C)(CO)C8[C@H](O)C[C@@]7(C)[C@]5(C)CC6)OC[C@H](O)[C@@H]4O)O[C@H]3C)OC[C@H]2O)[C@H](O)[C@H](O)[C@H]1O (stereo partly specified)	i
Cc1nccnc1CN1CCC2(CC1)CCN(Cc1ncc[nH]1)CC2CO (stereo unspecified)	i
CC(C)CCn1c(=O)c2ccccc2n2c(=O)n(Cc3cccc(F)c3)nc12	i
Cc1ccc(C)c(Cn2nc3n(CCc4ccccc4)c(=O)c4ccccc4n3c2=O)c1	i
CC1(CO)CCCC2(C)C1C(OC(=O)c1ccccc1)C=C1C(=O)OCC12O (stereo unspecified)	i
O=C(CSc1nnc2n(Cc3ccc(F)cc3)c(=O)c3ccccc3n12)Nc1cccc(F)c1	i
CCCCN(CC)CCN1C(=O)c2ccc(-c3ccco3)n2CC1(C)C(=O)NC1CCCCC1 (stereo unspecified)	i
Cc1cc2occ(CC(=O)N3CC[C@](C)(O)[C@@H](O)C3)c2cc1Cl	i
CCCCN1C(=O)c2cc(C(=O)Nc3cc(OC)cc(OC)c3)nn2CC1(C)C(=O)NC1CCCC1 (stereo unspecified)	i
CC1CCN(C(=O)CN2C(=O)NC3(CCCCC3)C2=O)CC1	i
OC[C@H]1NC[C@@H](O)[C@@H]1O	i
Cc1ccc(CNC(=O)c2ccc3c(=O)nc4c(-c5cccc(F)c5)n[nH]n4c3c2)cc1	i
CC(CCC(=O)N1CCn2nc(Cc3ccccc3)cc2C1)N1CCCC1 (stereo unspecified)	i
CN1C(=O)c2cc(C(=O)NCc3ccc(F)cc3)nn2CC1(C)C(=O)NC1CCCCCC1 (stereo unspecified)	i
COC[C@H]1CCCN1C(=O)C[C@@H]1O[C@H](CNS(C)(=O)=O)[C@@H](O)[C@H]1O	i

Arranged by SMILES length (ascending): part of the list above.
SMILES	Methyltransferases
CC(CCC(=O)N1CCn2nc(Cc3ccccc3)cc2C1)N1CCCC1 (stereo unspecified)	i
Cc1ccc(C)c(Cn2nc3n(CCc4ccccc4)c(=O)c4ccccc4n3c2=O)c1	i
CCCCN1C(=O)c2cc(C(=O)Nc3cc(OC)cc(OC)c3)nn2CC1(C)C(=O)NC1CCCC1 (stereo unspecified)	i

Next records follow:
SMILES	Methyltransferases
CCCCCCCCc1ccc(-c2ccc(C(=O)O)cc2)cc1	i
CCOc1ccc(CCNC(=O)CCc2nnc3n(Cc4ccc(C)cc4)c(=O)c4ccccc4n23)cc1	i
CC1(C(=O)N2CCCC2)CCC(=O)N1CCc1ccccc1Cl (stereo unspecified)	i
COc1cccc(CN2C(=O)c3cc4ccccc4n3CC2(C)C(=O)NCCCOC(C)C)c1 (stereo unspecified)	i
CCCn1c(=O)c2ccc(C(=O)NC(C)C)cc2n2c(SCC(=O)Nc3cccc(OC)c3)nnc12	i
Cc1nn2c(c1-c1cccnc1N1CCOCC1)N(C(=O)c1cc3ccccc3n1C)CCC2	i
CC1CCC(NC(=O)C2(C)Cn3c(ccc3-c3ccco3)C(=O)N2Cc2ccccc2F)CC1 (stereo unspecified)	i
COc1cccc(N2CCN(C(=O)c3noc(-c4ccc(C)cc4)n3)CC2)c1	i
O[C@H]1[C@H](NCc2cnc3ccccc3c2)[C@H]2CO[C@H](O2)[C@@H]1N1CCCCC1	i
Cc1ccc(Cn2c(=O)c3ccccc3n3c(SCC(=O)Nc4cccc(F)c4)nnc23)cc1	i
C=Cc1ccc(Cn2nc3n(CCC(C)C)c(=O)c4ccccc4n3c2=O)cc1	i
CN(CCCNC(=O)Cn1ccc2cc(S(=O)(=O)N3CCCCC3)ccc21)C1CCCCC1	?
CC(C)CN(C[C@@H](O)[C@H](Cc1ccccc1)NC(=O)O[C@@H]1CO[C@H]2OCC[C@H]21)S(=O)(=O)c1ccc(N)cc1	?
O=C1CN(Cc2c(F)cccc2Cl)S(=O)(=O)c2ccccc2N1Cc1ccccc1	i

Some of the compounds tested; the hit share may differ from the screen's.
